High-throughput results deposited in PubChem BioAssay by several laboratories.
Beta apoptosis = blocks beta cell apoptosis. INS-1E cytokine-induced death, ATP luminescence, 48 h; percent of positive-control rescue, neutral wells zero. actives 0.8% (n = 300,000). AID 435005. protection from apoptosis, % (test concentration not listed);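 active = all replicates at 75% or more, or half of them and the mean; inconclusive = half reach 75% but not the mean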;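 also: 0% = cytokine-treated negative control wells and 100% = positive control rescue; higher means more ATP so stronger rescue from cytokine killing; wells of about 40 µL received 100 nL stock; the first replicate is given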
Vif TR-FRET = inhibitors of Vif binding to APOBEC3G peptide, primary screen, biochemical, TR-FRET, GST-Vif 1-94, biotin-A3G peptide, dose response retest (AID 1117319); TR-FRET GST-Vif / biotin-A3G peptide binding; higher % means a stronger effect; test concentration not given here; strong numbers were not always called active; inhibition, %; hits with a dose series show IC50 in µM; actives 0.57% (n = 260,000);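 active = above the screen mean plus three standard deviations and confirmed in dose response; inconclusive = results disagree or hit not tested in dose response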;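 also: Vif residues 1-94 fused to GST binding biotinylated APOBEC3G peptide 110-148; 0% = full assay without inhibitor and 100% = GST in place of GST-Vif; retest series ran down from 100 µM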
RanGTP-Impb inh = disruptors of Ran-importin-beta complex formation – biochemical, FRET, CFP-Ran, YFP-importin-beta, homogeneous, primary screen | cell-free CFP-Ran/YFP-importin-beta FRET ratio | inhibition, % (test concentration not listed) | AID 2216 | actives 1.1% (n = 300,000);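 active = most replicates above 15%; inconclusive = exactly half above 15%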;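 also: 0% = DMSO wells and 100% = Ran loaded with GDP instead of GTP; wells of about 40 µL received 100 nL stock; the first replicate is given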
AF4-AF9 inh = blocks AF4 peptide binding to human AF9; P42568; AlphaScreen, biotin-AF4 peptide binding to FLAG-AF9; inhibition, % at 10 µM; actives 0.47% (n = 350,000); AID 651704;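 active = every replicate reaching a set inhibition limit, whatever the replicate mean, cut at about 25% in these data; inconclusive = mean inhibition reaches that limit but some replicates miss it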;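 also: 0% = plate neutral control median and 100% = total signal loss; the record names both 10 and 1 µM as test concentration; the first replicate is given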
A1 inh = inhibitors of the anti-apoptotic protein A1, read as caspase activation | MEF A1-2A-BIM cells, Caspase-Glo 3/7 luminescence, 3 h; percent of clofoctol response, vehicle zero | caspase activation, % (test concentration not listed) | actives 0.066% (n = 330,000);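 active = over half of replicate activation scores above 10%, or exactly half above 10 with the replicate mean above 10; inconclusive = replicate mean below 10 yet half the replicates above 10; inactive = over half of replicates below 10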;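 also: wells of about 30 µL received 50 nL stock; many hits fall short of the cut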
LANA-H2A inh = blocks KSHV LANA binding to histone H2A/H2B. Q9QR71. cell-free LANA-H2A/H2B peptide, fluorescence polarization. inhibition, % (no concentration beside the values). actives 0.6% (n = 320,000). AID 2629; in the data active = inhibition mostly above about 10%, no sharp cut-off; inactive = mostly below about 6.7%;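 also: stock transfer was 7.5 nL into about 10 µL; 0% = median of vehicle wells and 100% = median of positive control wells; one replicate is shown; the record names a cut of 25% in any replicate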
Target sequence (Q9QR71 whole entry, looked up): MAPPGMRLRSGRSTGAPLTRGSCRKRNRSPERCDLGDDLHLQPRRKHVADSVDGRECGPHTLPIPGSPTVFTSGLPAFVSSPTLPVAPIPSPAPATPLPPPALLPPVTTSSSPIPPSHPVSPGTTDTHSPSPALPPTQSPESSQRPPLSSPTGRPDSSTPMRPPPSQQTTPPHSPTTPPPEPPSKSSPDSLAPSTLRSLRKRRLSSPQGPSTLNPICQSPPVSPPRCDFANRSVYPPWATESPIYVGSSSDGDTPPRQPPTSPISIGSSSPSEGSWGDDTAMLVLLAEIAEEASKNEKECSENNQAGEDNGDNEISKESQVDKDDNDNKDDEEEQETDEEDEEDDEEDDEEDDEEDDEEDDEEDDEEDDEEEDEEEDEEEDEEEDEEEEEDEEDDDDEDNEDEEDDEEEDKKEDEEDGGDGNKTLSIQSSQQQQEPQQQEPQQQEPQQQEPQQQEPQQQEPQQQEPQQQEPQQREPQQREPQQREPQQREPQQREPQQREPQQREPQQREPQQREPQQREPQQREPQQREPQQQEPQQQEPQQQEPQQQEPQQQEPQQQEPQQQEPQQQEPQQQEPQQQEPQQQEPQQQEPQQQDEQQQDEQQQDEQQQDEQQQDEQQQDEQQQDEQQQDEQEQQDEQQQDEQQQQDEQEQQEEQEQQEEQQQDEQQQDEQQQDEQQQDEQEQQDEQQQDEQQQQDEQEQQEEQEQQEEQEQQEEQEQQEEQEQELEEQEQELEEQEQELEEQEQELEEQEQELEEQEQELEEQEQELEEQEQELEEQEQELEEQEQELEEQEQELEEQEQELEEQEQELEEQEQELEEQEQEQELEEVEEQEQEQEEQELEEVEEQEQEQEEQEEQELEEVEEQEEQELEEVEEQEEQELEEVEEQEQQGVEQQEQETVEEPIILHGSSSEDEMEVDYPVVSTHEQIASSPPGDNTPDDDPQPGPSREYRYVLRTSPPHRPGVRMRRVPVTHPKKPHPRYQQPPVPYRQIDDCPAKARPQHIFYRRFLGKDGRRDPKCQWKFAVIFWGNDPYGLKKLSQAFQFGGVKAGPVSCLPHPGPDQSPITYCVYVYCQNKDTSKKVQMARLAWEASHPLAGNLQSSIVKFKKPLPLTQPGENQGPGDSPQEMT
Calb FLC = C. albicans growth modulation with fluconazole; C. albicans CaCi-2 (fluconazole-resistant clinical isolate) + fluconazole, Alamar Blue growth, 48 h; growth inhibition, % (no concentration beside the values); actives 0.57% (n = 300,000);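 active = most replicates above 75%; inconclusive = exactly half above 75%; inactive = most below 75%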;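 also: all wells also contain fluconazole at 8 µg/ml as a sub-toxic cotreatment; 0% = median of DMSO wells and 100% = median of geldanamycin control wells; wells of about 8 µL received 7.5 nL stock; the first replicate is given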
T cruzi repl = T. cruzi replication inhibition. T. cruzi beta-gal in NIH3T3, luminescence, 90 h. inhibition, % (test concentration not listed). actives 1.4% (n = 300,000). AID 1885;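 active = mean inhibition across valid replicates above about 55%, limit read from the data; inconclusive = mean below that limit but half or more replicates reach it; inactive = mean below it, under half of replicates reach it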;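 also: signal also drops with host cell toxicity which is not excluded here; 0% = plate median of DMSO wells and 100% = zero luminescence signal; higher percent means less beta-gal luminescence so fewer parasites; stock transfer was 50 nL into about 50 µL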
* marks the source's active call; other numbers are inactive results.

O=c1[nH]cccc1-c1nc2ccccc2n1Cc1ccccc1F was read as Beta apoptosis -1, Vif TR-FRET -52%, RanGTP-Impb inh 3.9, AF4-AF9 inh 3.9, A1 inh 0.0, LANA-H2A inh 1.6, Calb FLC 4 and T cruzi repl 0.
For CC1CCC(C(C)C)C(OCC(O)CN2CCN(Cc3ccccc3)CC2)C1 (stereo not drawn) the results were Beta apoptosis 8, Vif TR-FRET -3%, RanGTP-Impb inh -0.8, A1 inh 0.7, LANA-H2A inh -1.6, Calb FLC -11 and T cruzi repl 32.
Cc1cc(NC(=O)C(C)SCC(=O)Nc2ccc(SC(F)F)cc2)no1 (stereo not drawn) was read as Beta apoptosis -7, RanGTP-Impb inh inconclusive, AF4-AF9 inh -5.2, A1 inh -0.3, LANA-H2A inh 0.8, Calb FLC 1 and T cruzi repl 6.
For CC1CN(c2ccc([N+](=O)[O-])cc2C(=O)N2CCOCC2)CC(C)N1 (stereo not drawn) the results were Beta apoptosis -7, RanGTP-Impb inh -7.6, A1 inh -0.3, LANA-H2A inh -3.8, Calb FLC 4 and T cruzi repl -14.
`Cc1n[nH]c(=O)n1-c1ccc(OC(F)(F)F)cc1` gave Vif TR-FRET -8%, RanGTP-Impb inh 2.0, AF4-AF9 inh 1.3, A1 inh 0.1, LANA-H2A inh 0.1, Calb FLC -1 and T cruzi repl -1.
Screening O=C(Cc1cccs1)N=Nc1c(O)[nH]c2ccccc12 returned Beta apoptosis 0, Vif TR-FRET 25%, RanGTP-Impb inh -0.8, AF4-AF9 inh -1.2, A1 inh -0.3, LANA-H2A inh 2.0, Calb FLC 23 and T cruzi repl -3.
Screening O=S(=O)(NCc1cccnc1)c1ccc2c(c1)OCCO2 returned Beta apoptosis -3, Vif TR-FRET 16%, RanGTP-Impb inh inconclusive, A1 inh -0.7, LANA-H2A inh 0.3, Calb FLC 1 and T cruzi repl -27.
For CN1CCN(NC(=O)Nc2ccc([N+](=O)[O-])cc2)CC1 the results were Beta apoptosis -2, Vif TR-FRET -4%, RanGTP-Impb inh 2.8, AF4-AF9 inh -0.6, A1 inh 0.5, LANA-H2A inh -1.4, Calb FLC -5 and T cruzi repl 52.
Screening CC(C)c1ccc[n+](-c2nc([O-])sc2C=O)c1 returned Beta apoptosis 7, Vif TR-FRET 3%, RanGTP-Impb inh -0.1, AF4-AF9 inh -0.2, A1 inh 0.6, LANA-H2A inh 1.6, Calb FLC -2 and T cruzi repl -2.
Screening O=C(Nc1ccc(S(=O)(=O)NCc2ccco2)cc1)C1CCCCC1 returned Beta apoptosis 1, Vif TR-FRET -3%, RanGTP-Impb inh inconclusive, AF4-AF9 inh -0.6, A1 inh -0.6, LANA-H2A inh 13, Calb FLC -20 and T cruzi repl -5.
`Cc1ccc(OCC(=O)N(Cc2cccs2)C2CCS(=O)(=O)C2)cc1` (stereo not drawn) gave Beta apoptosis -5, Vif TR-FRET 0%, RanGTP-Impb inh 7.1, A1 inh -0.1, LANA-H2A inh -0.6, Calb FLC -4 and T cruzi repl 25.
`CCS(=O)(=O)N1CCN(C(=O)CC(C)C)CC1` gave Beta apoptosis -4, Vif TR-FRET 66%, RanGTP-Impb inh 2.8, A1 inh -0.6, LANA-H2A inh -1.2, Calb FLC -18 and T cruzi repl 0.
`Cc1ccc2nc(-c3ccc(F)cc3)nc(SCC(=O)NCC3CCCO3)c2c1` (stereo not drawn) gave Beta apoptosis 0, RanGTP-Impb inh -4.2, AF4-AF9 inh 3.2, A1 inh 0.0, LANA-H2A inh -1.9, Calb FLC -1 and T cruzi repl 20.
Screening COC(=O)/C=C1/C(=O)N/C(=N\c2nc(C)cc(C)n2)N1c1ccc(OC)cc1 returned Beta apoptosis -5, Vif TR-FRET 8%, RanGTP-Impb inh 6.4, AF4-AF9 inh -0.5, A1 inh -0.2, LANA-H2A inh 1.9, Calb FLC 10 and T cruzi repl 0.
Screening CN1CCN(CCCNC(=O)c2nnc(Cc3c(F)cccc3Cl)o2)CC1 returned Beta apoptosis -4, Vif TR-FRET 5%, RanGTP-Impb inh -0.5, AF4-AF9 inh inconclusive, A1 inh inconclusive, LANA-H2A inh -89, Calb FLC 23 and T cruzi repl -20.

Some of these compounds in order of SMILES length, high to low:
`Cc1ccc(OCC(=O)N(Cc2cccs2)C2CCS(=O)(=O)C2)cc1` (stereo not drawn) gave Beta apoptosis -5, Vif TR-FRET 0%, RanGTP-Impb inh 7.1, A1 inh -0.1, LANA-H2A inh -0.6, Calb FLC -4 and T cruzi repl 25.
Screening O=C(Nc1ccc(S(=O)(=O)NCc2ccco2)cc1)C1CCCCC1 returned Beta apoptosis 1, Vif TR-FRET -3%, RanGTP-Impb inh inconclusive, AF4-AF9 inh -0.6, A1 inh -0.6, LANA-H2A inh 13, Calb FLC -20 and T cruzi repl -5.
O=c1[nH]cccc1-c1nc2ccccc2n1Cc1ccccc1F was read as Beta apoptosis -1, Vif TR-FRET -52%, RanGTP-Impb inh 3.9, AF4-AF9 inh 3.9, A1 inh 0.0, LANA-H2A inh 1.6, Calb FLC 4 and T cruzi repl 0.
Screening CC(C)c1ccc[n+](-c2nc([O-])sc2C=O)c1 returned Beta apoptosis 7, Vif TR-FRET 3%, RanGTP-Impb inh -0.1, AF4-AF9 inh -0.2, A1 inh 0.6, LANA-H2A inh 1.6, Calb FLC -2 and T cruzi repl -2.
`CCS(=O)(=O)N1CCN(C(=O)CC(C)C)CC1` gave Beta apoptosis -4, Vif TR-FRET 66%, RanGTP-Impb inh 2.8, A1 inh -0.6, LANA-H2A inh -1.2, Calb FLC -18 and T cruzi repl 0.
